RGS16-Gao: regulators of human RGS16-Galphao interaction; O15492+P09471; 220,000 compounds, 0.38% hits; binding response (% of control), % at 10 µM; bead-based flow cytometry RGS16-Galphao binding, fluorescence; actives lie on both sides;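 active = below 25% or above 175%, edge rows of some plates excepted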;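 note: Galphao activated by GDP with aluminum fluoride before binding; 100% = wells without compound and 0% = beads without RGS; some results beyond the cut were filed as inactive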
Target sequence (O15492 whole entry, looked up): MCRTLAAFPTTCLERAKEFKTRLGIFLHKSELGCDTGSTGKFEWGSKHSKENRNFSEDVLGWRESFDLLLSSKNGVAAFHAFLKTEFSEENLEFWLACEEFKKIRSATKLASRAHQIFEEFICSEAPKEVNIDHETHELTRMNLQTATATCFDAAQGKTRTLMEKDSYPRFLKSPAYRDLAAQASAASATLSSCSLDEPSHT
Target sequence (P09471 whole entry, looked up): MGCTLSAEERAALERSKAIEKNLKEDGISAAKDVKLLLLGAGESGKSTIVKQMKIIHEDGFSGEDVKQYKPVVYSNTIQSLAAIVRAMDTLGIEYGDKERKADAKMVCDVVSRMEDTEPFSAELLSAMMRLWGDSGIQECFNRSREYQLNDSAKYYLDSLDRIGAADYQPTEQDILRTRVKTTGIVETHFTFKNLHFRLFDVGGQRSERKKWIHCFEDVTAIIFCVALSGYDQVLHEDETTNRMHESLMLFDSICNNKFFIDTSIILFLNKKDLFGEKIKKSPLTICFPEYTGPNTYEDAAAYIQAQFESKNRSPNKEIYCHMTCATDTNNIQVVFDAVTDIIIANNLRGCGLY
HSV augment: HSV replication enhancement; 220,000 compounds, 0.005% hits; maximum fold increase; HSV replication augmentation in cells, fold increase;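 active = peak rise of 1.5-fold or more in the series; tested in PC3 cells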;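 note: first round at 10 µM; read as green reporter fluorescence; hits show the peak of a series up to 25 µM; 1 = signal of infected wells without compound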
INS promoter inh: TRM-6 insulin promoter activity inhibition | inhibition, % at 2 µM | 130,000 compounds, 0.9% hits | TRM-6 cells (human fetal islet line), insulin promoter-eGFP reporter, imaging; reporter expression induced with tamoxifen | AID 1273;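 active = inhibition above the mean plus 3 SD, with well images judged a real hit on visual review, cut at about 60% in these data, passing the limit was not always enough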
PKD1 kinase inh: inhibitors of human PKD1 kinase; PKD1 kinase fluorescence polarization assay; 200,000 compounds, 0.056% hits; inhibition, %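 (about 10 µM by stock and volumes)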; Q15139;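 active = inhibition of 50% or more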;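 note: controls were vehicle for no effect and a reference inhibitor for full effect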
GALR2 ag: agonists of human galanin receptor 2 (GALR2); 140,000 compounds, 0.48% hits; activation, %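 (tested at 5 µM)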; GALR2-expressing cells, agonist activation read-out;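 active = above mean plus 3 SD of all compounds, about 5% in these data, not always enough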;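 note: 0% = vehicle buffer wells and 100% = reference agonist at full effect; tested in CHO reporter cells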
Target sequence (O43603 whole entry, looked up): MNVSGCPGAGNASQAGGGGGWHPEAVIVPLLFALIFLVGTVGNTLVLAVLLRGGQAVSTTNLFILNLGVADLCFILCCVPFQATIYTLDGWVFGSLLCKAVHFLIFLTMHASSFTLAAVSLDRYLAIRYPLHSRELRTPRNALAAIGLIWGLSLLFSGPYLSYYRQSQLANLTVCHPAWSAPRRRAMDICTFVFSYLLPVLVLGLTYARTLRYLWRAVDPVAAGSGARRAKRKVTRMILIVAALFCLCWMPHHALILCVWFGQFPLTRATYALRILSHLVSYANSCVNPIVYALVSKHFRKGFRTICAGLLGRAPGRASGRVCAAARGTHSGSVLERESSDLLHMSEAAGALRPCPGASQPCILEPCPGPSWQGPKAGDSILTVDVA
INS promoter inh cell count: further read-out of INS promoter inh, marked with its call; normalized cell count, %; measured here: cell count, toxicity; reference of the scale not given here;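 cells exposed to compound for 48 h; stained nuclei by imaging scaled within each plate; lower means fewer cells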
HSV augment primary fold: further read-out of HSV augment, marked with its call; fold increase; compound at 10 µM; measured here: primary screen fold increase 10 uM; tested in PC3 cells;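 GFP signal in the first replicate; 1 = infected wells without compound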
Starred values were filed as active, the others as inactive; i = inactive; x = no result given.

Values in the order: RGS16-Gao	HSV augment	HSV augment primary fold	INS promoter inh	INS promoter inh cell count	PKD1 kinase inh	GALR2 ag
O=C(CCNC(=O)c1ccccc1Cl)Nc1cccc(C(F)(F)F)c1
  138	i	0.79	-30	64	2	0.6
CC(C)C(C)NC(=O)COc1ccc(Sc2ccc(OCC(=O)NC(C)C(C)C)cc2)cc1 (centres undefined)
  110	i	1	x	x	-7	-1.1
O=C(Cc1ccc(Cl)cc1)Nc1ncc([N+](=O)[O-])s1
  68	i	1.1	17	75	-2	x
CN1C(=O)c2cccc3c(S(=O)(=O)NCc4ccco4)ccc1c23
  96	i	0.83	-142	120	-5	-1.6
Cc1cc(C(=O)NCCCN2CCN(C3CCCCC3)CC2)n(-c2ccccc2)n1
  105	i	1	x	x	0	-0.7
COc1ccc(/C=N/n2cnc3c([nH]c4ccc(C)cc43)c2=O)cc1CN1CCCC1
  106	i	0.98	x	x	x	x
CCCc1nnc(NC(=O)CCC(=O)NC2CCCc3ccccc32)s1 (centres undefined)
  108	i	1.1	-30	74	9	0.0
COc1ccccc1OCC(=O)Nc1ccc(Cl)cc1
  110	i	0.83	25	146	-6	-3.5
Cc1onc(-c2c(Cl)cccc2Cl)c1C(=O)NCc1ccco1
  137	i	0.95	x	x	-2	0.4
Fc1ccc2c(Cl)c(-c3nnc(-c4cccs4)o3)sc2c1
  101	i	0.93	-4	88	-8	-2.6
CCSc1cc(Cl)nc(N)n1
  97	i	1.1	x	x	x	x
CC(C)C(c1nnnn1Cc1ccc(F)cc1)N1CCN(c2ccc(O)cc2)CC1 (centres undefined)
  102	i	0.82	11	142	1	x
CCOc1ccc(N2CC(C(=O)Nc3ccccc3N3CCOCC3)CC2=O)cc1 (centres undefined)
  101	i	1	20	233	-1	-1.6
CN1CCN(C(=O)/C(=C/c2ccc(F)cc2)c2ccsc2)CC1
  119	i	0.93	50	22	11	x
COCCNC(=O)C(c1ccccc1)N(C(=O)Cn1nnc2ccccc21)c1cccnc1 (centres undefined)
  99	i	0.99	x	x	-2	-0.7
COc1ccc(C2(CCN)CC(C)N(C)CC2C)cc1 (centres undefined)
  102	i	0.95	-55	197	-4	-1.6
Cc1oc2ncnc(N)c2c1C
  102	i	1	25	55	1	0.5
O=C(NCC1CCCO1)C(=O)N/N=C/c1cc(Cl)ccc1O (centres undefined)
  100	i	1.1	x	x	x	x
CCCNC(=O)COc1ccc(S(=O)(=O)Nc2ccc(C)cc2)cc1
  134	i	0.91	-38	145	1	-2.2
Cc1ccc(NC(=O)CCSc2nnc(-c3ccco3)o2)cc1
  99	i	0.89	-50	153	12	-0.3
CCc1ccccc1NC(=O)CSc1nc(-c2ccccc2)nn1C(=O)c1cccc([N+](=O)[O-])c1
  101	i	0.89	x	x	4	-4.0
N/C(=N\OC(=O)c1ccco1)c1ccccn1
  100	i	0.89	x	x	1	x
COc1cccc(-c2nn(-c3ccccc3)cc2CN(C)Cc2c(C)nc3ccccn23)c1
  79	i	0.75	-45	50	-11	x
CCn1cc(Cl)c(C(=O)NNC(=O)CCn2cc([N+](=O)[O-])cn2)n1
  111	i	0.94	47	99	-7	-1.0
O=C(NCc1c(Cl)cccc1Oc1ccccc1)c1ccccc1
  100	i	1.1	x	x	x	x
Cc1ccc(C)c(NC(=O)CN(C)S(=O)(=O)c2ccccc2)c1
  100	i	0.98	-167	123	-5	-0.7
Cc1cccc(Oc2ccc(NC(=O)C3CC=CCC3C(=O)O)cc2)c1 (centres undefined)
  97	i	0.99	29	101	-1	x
COc1cc(NC(=O)C2=C(N3CCOCC3)/C(=C/c3ccc(Cl)cc3)CC2)cc(OC)c1OC
  110	i	1.1	x	x	-1	-1.2
Cc1cc(C)nc(/N=C(\NC(=O)C(C)(C)C)Nc2ccc(F)cc2)n1
  102	i	0.94	x	x	x	x
O=C(CNCc1ccc(Cl)cc1)Nc1ccc2c(c1)OCCO2
  99	i	1	x	x	-5	x
CCOC(=O)N1CCC(NC(=O)c2cc(C(=O)NC3CCCC3)ccc2CO)CC1
  100	i	1.1	x	x	-1	-1.9
CC(=O)c1sc(NC(=O)COc2ccccc2)nc1C
  101	i	1.1	x	x	1	x
c1csc(CN2CCOCC2)c1
  104	i	0.83	-14	70	-2	-0.6
CCOc1ccc(N(CC(=O)NCc2ccccc2OC)S(C)(=O)=O)cc1
  99	i	0.82	-23	118	-2	-0.7
CC(Oc1ccc(-c2nccc(-c3ccccn3)n2)cc1)C(=O)NN (centres undefined)
  99	x	x	x	x	-1	-2.5
CN(C1CCS(=O)(=O)C1)S(=O)(=O)c1ccc(C2CCCCC2)cc1 (centres undefined)
  102	i	0.97	25	87	-7	-1.9
COc1ccccc1C(=O)C1CCCN(C(=O)CCC(=O)c2ccccc2)C1 (centres undefined)
  103	i	1.1	x	x	-5	x
CN(C)/C=C/C(=O)c1ccc(F)cc1
  99	i	0.8	13	88	-4	-1.7
N#CC1c2ccccc2C=CN1C(=O)c1ccccc1 (centres undefined)
  104	i	0.91	x	x	x	x
CC(C)COc1ccc(C2NC(=O)NC2=O)cc1 (centres undefined)
  111	i	1.1	40	119	-6	-0.1
Cn1cc(-c2nnnn2-c2cccc(C(F)(F)F)c2)c(C(F)(F)F)n1
  102	i	1	-23	115	-5	-1.9
O=C(Nn1cnnc1)C(Sc1ccccc1)c1ccccc1 (centres undefined)
  99	i	1.1	x	x	-2	-0.1
O=C(c1ccc2c(c1)OCO2)C1CCCN(C(=O)C2CCOCC2)C1 (centres undefined)
  97	i	0.95	x	x	-1	x
CC1CCN(C(C(=O)O)c2ccccc2)CC1 (centres undefined)
  103	i	1.1	x	x	-5	x
COc1ccc(N2CCN(C(=O)c3ccc4c(c3)[nH]c(=S)n3c5ccccc5nc43)CC2)cc1
  102	i	0.89	x	x	-3	x
CSCCC(NC(=O)c1ccc(Cl)cc1)C(=O)OCC(=O)Nc1cc(Cl)ccc1C#N (centres undefined)
  105	i	1.1	14	84	3	-1.5
CCCc1n[nH]c2c1/C(=N/O)CC(c1ccccc1)C2 (centres undefined)
  99	i	0.92	-100	95	-2	-1.3
Cc1csc(NC(=O)c2ccoc2C)n1
  97	i	0.94	55	72	2	-0.1
Cc1cc(=O)[nH]c(N2CCOCC2)n1
  100	i	1.4	x	x	1	x
COC(=O)Nc1c(C)nn(Cc2ccccc2C)c1C
  -59	i	0.92	48	122	-4	0.6
COC(=O)c1c(SCC(=O)Nc2ccc(C)cc2)nc(=O)[nH]c1C
  106	i	1	-8	56	4	x
COC(=O)c1ccc(N2C(=O)CC(NCc3ccccc3)C2=O)cc1 (centres undefined)
  104	i	1	20	146	-4	0.6
O=C(COC(=O)c1nc(-c2ccccc2)n(-c2cccc(C(F)(F)F)c2)n1)NCc1cccs1
  98	i	0.98	-44	108	5	-0.6
Cc1cc(=O)n2nc(N3CCCC3C(=O)NCc3ccccn3)sc2n1 (centres undefined)
  99	i	1.1	19	137	-7	-1.9
O=C(Nc1ccc(N2CCOCC2)cc1)c1cc2ccccc2o1
  90	i	0.98	3	108	-11	-1.1
CCOC(=O)C1CCN(S(=O)(=O)c2ccc(OC)c(Cl)c2)CC1
  97	i	0.99	-18	120	-7	x
O=C(CN1C(=O)C2CC=CCC2C1=O)Nc1nccs1 (centres undefined)
  110	i	0.84	x	x	x	x
Cc1ccc(S(=O)(=O)Oc2ccccc2/C=N/NC(=O)c2c(Cl)cnn2C)cc1
  100	i	1	-48	76	-7	-0.5
Cc1cc2c(cc1C)CSC(c1ccc3ccccc3c1O)SC2
  108	i	1	63*	104*	1	-0.3
CCOC(=O)/C(C#N)=C/c1cn(CCC(=O)O)nc1-c1ccc(Cl)cc1
  104	i	1.2	x	x	-4	-0.2

Additional results.
Values in the order: RGS16-Gao	HSV augment	HSV augment primary fold	INS promoter inh	INS promoter inh cell count	PKD1 kinase inh	GALR2 ag
O=C(NC12CC3CC(CC(C3)C1)C2)N(Cc1ccccc1)Cc1ccncc1
  103	i	1	x	x	0	x
O=C(C1CCC(CNc2c(N3CCCCC3)c(=O)c2=O)CC1)N1CCc2ccccc2C1 (centres undefined)
  103	i	0.97	-14	110	-5	-0.2
O=C(NCCc1ccc(F)cc1)Nc1ccc2c(c1)OCO2
  62	i	1.2	x	x	-6	x
CS(=O)(=O)N(CC(=O)NCCSc1ccccc1)c1ccc2c(c1)OCO2
  101	i	0.7	x	x	0	-1.1
COc1ccccc1C(=O)CSc1nnc(-c2ccco2)o1
  92	i	1	x	x	-3	x
CCOc1ccc(NC(=O)c2ccc3c(SCC(=O)O)c4c(nc3c2)CCCC4)cc1
  101	i	0.96	x	x	2	x
CN(C)S(=O)(=O)c1ccc(C(=O)OCCCN=C2NS(=O)(=O)c3ccccc32)cc1
  104	i	1	x	x	-10	-1.8
CCN1C(=O)/C(=C/C=C2\C=CN(CC)c3ccccc32)SC1=S
  87	x	x	28	151	6	-1.2
CSC(=Nc1ccccc1)C(C#N)c1nc2ccccc2[nH]1 (centres undefined)
  112	i	0.94	x	x	x	x
COc1cc(C(=O)OC(C)C(=O)N2CCc3ccccc3C2)ccc1OCC(=O)N1CCOCC1 (centres undefined)
  101	i	0.95	7	125	2	-1.7
CC(=O)Nc1cccc(C(=O)Nc2ccccc2C(=O)O)c1
  103	i	0.87	36	96	7	0.5
NC(=O)C1CCCN(S(=O)(=O)c2ccc(Br)cc2)C1 (centres undefined)
  104	i	0.92	13	66	5	0.5
CCOc1ccc(N2CC(=O)Nc3ccccc3NCC2=O)cc1
  101	i	0.89	36	72	-6	0.2

In another format: two of the compounds above.
mol	RGS16-Gao	HSV augment	HSV augment primary fold	INS promoter inh	INS promoter inh cell count	PKD1 kinase inh	GALR2 ag
Cc1cc(=O)n2nc(N3CCCC3C(=O)NCc3ccccn3)sc2n1 (centres undefined)	99	i	1.1	19	137	-7	-1.9
O=C(Nc1ccc(N2CCOCC2)cc1)c1cc2ccccc2o1	90	i	0.98	3	108	-11	-1.1

Of the compounds above, nine have fluorine.
Values in the order: RGS16-Gao	HSV augment	HSV augment primary fold	INS promoter inh	INS promoter inh cell count	PKD1 kinase inh	GALR2 ag
O=C(CCNC(=O)c1ccccc1Cl)Nc1cccc(C(F)(F)F)c1
  138	i	0.79	-30	64	2	0.6
Fc1ccc2c(Cl)c(-c3nnc(-c4cccs4)o3)sc2c1
  101	i	0.93	-4	88	-8	-2.6
CC(C)C(c1nnnn1Cc1ccc(F)cc1)N1CCN(c2ccc(O)cc2)CC1 (centres undefined)
  102	i	0.82	11	142	1	x
CN1CCN(C(=O)/C(=C/c2ccc(F)cc2)c2ccsc2)CC1
  119	i	0.93	50	22	11	x
Cc1cc(C)nc(/N=C(\NC(=O)C(C)(C)C)Nc2ccc(F)cc2)n1
  102	i	0.94	x	x	x	x
CN(C)/C=C/C(=O)c1ccc(F)cc1
  99	i	0.8	13	88	-4	-1.7
Cn1cc(-c2nnnn2-c2cccc(C(F)(F)F)c2)c(C(F)(F)F)n1
  102	i	1	-23	115	-5	-1.9
O=C(COC(=O)c1nc(-c2ccccc2)n(-c2cccc(C(F)(F)F)c2)n1)NCc1cccs1
  98	i	0.98	-44	108	5	-0.6
O=C(NCCc1ccc(F)cc1)Nc1ccc2c(c1)OCO2
  62	i	1.2	x	x	-6	x

Source: PubChem BioAssay
